H5N1 CPE – MDCK cell protection from H5N1 avian flu; cytopathic effect, luminescence, 72 h; active compounds read high; no value below 0 was filed and about half of the inactive calls have no number; reference of the scale not given here; inhibition, % at 50 µM; hit rate 0.07% among 96,000; AID 740; in the data active = inhibition above about 25%
The depositor's hits bear a star; i = inactive. A portion of the library, so the mix of outcomes need not match the whole.

SMILES | H5N1 CPE
Cc1noc(C)c1S(=O)(=O)N1CCCC(C(=O)N2CCc3ccccc3C2)C1 (configuration not stated) | 0.9
Cc1c(NC(=O)NCc2ccccc2)c(=O)n(-c2ccccc2)n1C | i
Cc1nc2ccc(C(=O)N3CCSCC3)cc2s1 | i
Cc1cc(Cl)ccc1OCC(=O)N1CC(C)CC(C)C1 (configuration not stated) | 0.2
c1cn(CC2(Cn3ccnc3)COC2)cn1 | i
Cc1ccc2nc(Nc3ccccc3)c(/C=N/O)c(=O)n2c1 | i
O=C(O)c1ccc(CSc2nnc(-c3ccco3)o2)cc1 | 0.7
CCCCCC(=O)Nc1c(-c2ccc(OC)cc2)c(=O)c2ccccc2n1C | 1.0
CN(C)c1ccc(Nc2nc(-c3cccnc3)cs2)cc1 | 0.3
Cc1nnc2c(NC(C)C)nc3ccccc3n12 | 0.2
O=C(CSCC(=O)Nc1ccc2ccccc2c1)NCc1ccccc1 | i
Cc1ccc(NS(=O)(=O)c2cc(C(=O)NCc3ccccn3)ccc2Cl)cc1 | i
Clc1ccc(OCCCCSc2ncccn2)cc1 | 0.5
CCOC(=O)C1[C@H]2C(=O)N(CCCOC)C[C@]23C=C[C@H]1O3 (some centres not stated) | i
CC(/C(O)=C(\C#N)c1nc2ccccc2n1C)N1C(=O)c2ccccc2C1=O (configuration not stated) | i
O=C(/C(=N\O)n1cncn1)c1ccc(Br)cc1Br | i
CCCCOC(=O)Nc1nc(C)c(C(=O)OCC)s1 | i
NC(=O)COC(=O)CCCc1nc2ccccc2s1 | i
CCOC(=O)N1CCN(C(=O)c2cc(C)no2)CC1 | 0.2
CCOC(=O)c1nnn(CC(=O)Nc2ccccc2OC)c1C(=O)OCC | 0.8
Cc1ccc(C)n1CCN1CCN(C(=O)c2ccco2)CC1 | 0.5
CC(=O)Nc1ccc(C2=NN(CC#N)C(=O)SC2)cc1 | 0.6
CCc1ccc(C2CC(=O)NC(SCC(=O)OC(C)C)=C2C#N)cc1 (configuration not stated) | 4.1
COc1ccc(NC(=O)C2CCN(S(=O)(=O)c3c(C)noc3C)CC2)cc1Cl | 0.4
CCOC(=O)c1ccc(N/C=C2/CCCC(C)C2=O)cc1 (configuration not stated) | i
CCCc1nc2ccccc2c(=O)n1-c1c(C)n(C)n(-c2ccccc2)c1=O | i
O=C1c2ccccc2C(=O)N1CCSc1nnc(-c2ccco2)n1Cc1ccccc1 | i
O=C1CC(N2CCN(c3ccccc3F)CC2)C(=O)N1c1ccc2c(c1)OCCO2 (configuration not stated) | i
Cc1cc(C)cc(-n2c3nc4ccccc4nc3c3c(=O)n(Cc4ccco4)cnc32)c1 | 1.1
CCn1cc(/C=N/NC(=O)c2ccc3c(c2)OCO3)c(C)n1 | 0.2
CCCC(C)NC(=O)c1ccc(C2SCC(=O)N2Cc2ccco2)cc1 (configuration not stated) | 0.3
Cc1cc(S(=O)(=O)Nc2cccnc2)c(C)s1 | i
CCSc1nnc(NC(=O)c2cccc(OCc3c(C)noc3C)c2)s1 | i
CC(C)(C)c1[nH]nc2c1C(c1ccccc1OC(=O)N1CCOCC1)C(C#N)=C(N)O2 (configuration not stated) | i
Cc1nn(C)c(C)c1S(=O)(=O)N1CCCC(C(=O)NC2CCCCCC2)C1 (configuration not stated) | i
Cc1oc(-c2ccccc2F)nc1CS(=O)(=O)CC(=O)NCCCc1ccccc1 | 1.3
COc1cccc(C2C(C(=O)NCc3ccccc3)=C(C)Nc3ncnn32)c1 (configuration not stated) | 0.6
COc1ccc(OC(C)C(=O)N2CCc3ccccc3C2)cc1 (configuration not stated) | i
CCC(Oc1ccccc1)C(=O)Nc1nc2c(s1)C(=O)CC(C)(C)C2 (configuration not stated) | i
CC(=O)N1CCN(c2cccc(C)c2C)CC1 | i
CSc1cc(-c2ccccc2)n(Cc2ccccc2Cl)c(=O)c1C#N | 0.6
CC(=O)c1cccc(NC(=O)Nc2cccs2)c1 | i
COC(=O)C1=CN(C)C=C(C(=O)OC)C1c1ccccc1Cl | i
Cc1ccsc1C(=O)NNC(=O)Nc1ccc(Cl)c(Cl)c1 | 0.9
Cc1cc(NC(=O)Cn2cc(C(F)(F)F)cc(Cl)c2=O)no1 | 1.4
O=C1OCC2=C1C(c1ccc3c(c1)OCO3)Sc1ccccc1N2 (configuration not stated) | 1.5
CCN(CC)c1ccc(C=Nc2ccc(C#N)cc2)c(O)c1 | i
CCCN1CCN(CCCNC(=O)C2CCCN(c3nc4ccc(OCC)cc4s3)C2)CC1 (configuration not stated) | 0.7
Cc1nn2c(C(F)(F)F)cc(-c3ccc(Cl)cc3)nc2c1C(=O)N1CCOCC1 | i
O=C(NC1CC1)c1cc(-c2ccccn2)nc2ccccc12 | 0.0
CCOC(=O)CN1c2ccccc2NC(=O)CC1C (configuration not stated) | 2.4
O=C(C1CCN(c2nnc(N3CCCC3=O)s2)CC1)N1CCN(Cc2ccc3c(c2)OCO3)CC1 | i
CC(C)c1ccc2oc(-c3ccc(N)cc3)nc2c1 | i
CCOC(=O)c1cc(NC(=O)c2ccoc2C)cc(C(=O)OCC)c1 | i
C=CCn1c(SCc2c(F)c(F)c(F)c(F)c2F)nc(O)cc1=O | i
Cc1cc(C)c(C#N)c(SCC(=O)N(C)C2CCCCC2)n1 | i
COc1ccccc1/C=C1\S/C(=N/NC(=O)c2cccc(Br)c2)NC1=O | 1.0
CCOCCCn1cnc2c(c1=O)c1nc3ccccc3nc1n2-c1ccc(C)cc1 | 1.2
CCN1CCCC1CNS(=O)(=O)c1ccc(C(=O)Nc2ccccc2)cc1 (configuration not stated) | i
COc1ccc(C2CC(=O)Nc3ccccc3S2(=O)=O)cc1OC (configuration not stated) | 0.6
(next part)
SMILES | H5N1 CPE
O=C1CC(N2CCN(S(=O)(=O)c3cccc(C(F)(F)F)c3)CC2)C(=O)N1Cc1ccccc1 (configuration not stated) | i
CCOC(=O)CSc1nnc(CNC(=O)c2ccco2)n1C | 1.4
Cc1ccc(CCCOC(=O)C[N+]2(C)CCOCC2)cc1 | 0.1
CCc1nc(C)ccc1OCC(=O)O | 0.7
S=C(c1ccc(-c2ccc(Cl)cc2Cl)o1)N1CCCCC1 | 0.0
Cc1c(C)c2ccc(Oc3ccc([N+](=O)[O-])cc3C(F)(F)F)c(C)c2oc1=O | i
c1csc(-c2nnc(-c3ccc(N4CCOCC4)cc3)o2)c1 | 0.1
COc1ccc(NC(=O)CSc2nnc(-c3ccccn3)n2N)cc1Cl | 0.1
Cc1cc(C(=O)CSc2nnc(-c3ccc(F)cc3)o2)c(C)n1CC1COc2ccccc2O1 (configuration not stated) | 0.4
Cc1cccc(S(=O)(=O)c2c(N)n(Cc3ccco3)c3nc4ccccc4nc23)c1 | 4.3
Cc1cc(OCCN2CCOCC2)nc2ccccc12 | 0.2
Cc1ccc(CNC(=O)C2CCCN(S(=O)(=O)c3c(C)n[nH]c3C)C2)cc1 (configuration not stated) | 1.0
COc1cc(-c2nc3oc4ccccc4c(=O)c3c(=O)n2Cc2ccco2)cc(OC)c1OC | 3.5
O=C(/C=C\NCC(=O)c1ccccc1)c1ccc(F)cc1 | i
CCOCCn1c(SCc2ccc(C)cc2)nc2c1c(=O)[nH]c(=O)n2C | 2.8

2 entries drawn at random from those above:
SMILES | H5N1 CPE
CCOC(=O)CSc1nnc(CNC(=O)c2ccco2)n1C | 1.4
COc1cc(-c2nc3oc4ccccc4c(=O)c3c(=O)n2Cc2ccco2)cc(OC)c1OC | 3.5

The list continues:
SMILES | H5N1 CPE
CCc1c(C)nc2ncnn2c1N1CCC(C(=O)NCc2ccc3c(c2)OCO3)CC1 | i
O=C(CN1CCC(n2nnc3cc(F)ccc32)CC1)NCc1ccco1 | i
CCN(CC)C(=O)COC(=O)c1cc(-c2ccc(OC)cc2)nc2ccccc12 | i
Cn1c(=O)c2c(nc(CN3CCOCC3)n2CCCO)n(C)c1=O | 0.7
OCCN1CCOCCN(CCO)CCOCC1 | 0.1
NNc1nc(-c2ccccc2)cc(-c2ccccc2O)n1 | 3.1
C=CCNC(=S)Nc1ccccc1 | 1.1
NS(=O)(=O)c1ccc(NCc2ccccc2OCc2ccc(F)cc2)cc1 | 2.4
Cc1ccc2c(c1)NC(=O)C(CC(=O)NCCCN1CCCCC1C)O2 (configuration not stated) | i
Cn1c(=O)n(CC(=O)NC2CCCCC2)c(=O)c2ccccc21 | i
CCCCc1ccc(NC(=O)CSCc2cc(=O)[nH][nH]2)cc1 | i
O=C(Nc1nc(-c2ccccc2)cs1)c1cccc(S(=O)(=O)N2CCN(Cc3ccccc3)CC2)c1 | i
CC(=O)N1N=C(c2ccc(C)cc2)OC1c1ccc(C)cc1 (configuration not stated) | 1.1
COCCNc1cc(C)nc2c(-c3ccccc3OC)c(C)nn12 | i
Cc1cc2c(=O)[nH]cnc2s1 | i
COc1cccc(C=Nc2cccnc2)c1O | i
Cc1nc(CNS(=O)(=O)c2cccnc2)cs1 | 0.8
COc1cc2[nH]c(=O)n(CCC(=O)NCCC(C)C)c(=O)c2cc1OC | 2.0
COc1cccc(C2=NOC(C(=O)N3CCc4ccccc4C3)C2)c1 (configuration not stated) | 0.2
Nc1c2c(nc3sc4c(c13)CCCC4)CCCCC2 | 0.2
Cc1csc(SCCn2c(N3CCOCC3)nc3c2c(=O)[nH]c(=O)n3C)n1 | 3.2
COc1c(Cl)cc(C(=O)Nc2ccccc2C(=O)O)cc1Cl | 1.4
O=C1CCCc2ccccc2N1Cc1ccc(Cl)cc1 | 1.4
Cc1ccc(C)c(C(=O)COC(=O)c2ccccc2N2C(=O)C3C4CCC(C4)C3C2=O)c1 (configuration not stated) | i
CCN(C(=O)CSc1nc2nc(C)cc(C)n2n1)c1ccccc1 | i
N#CC(c1ccc(Cl)cc1)c1ccc2c(C(F)(F)F)cc(C(F)(F)F)nc2n1 (configuration not stated) | 11.9
CC(=O)C1=C(C)NC(SCC(=O)c2ccc(C)cc2)=C(C#N)C1c1ccco1 (configuration not stated) | 1.0
CC(=O)Nc1c(C(=O)O)oc2ccccc12 | 0.3
O=C(NCc1ccc2c(c1)OCO2)C1CC(=O)N(c2ccc(O)cc2)C1 (configuration not stated) | i
CC(NC(=O)CCCN1C(=O)c2ccccc2C1=O)c1ccc2c(c1)CCCC2 (configuration not stated) | 1.1
COC(=O)C(NS(=O)(=O)c1ccc(NC(C)=O)cc1)C(C)C (configuration not stated) | i
CCN1C(=O)c2ccccc2S(=O)(=O)c2ccc(C(=O)N3CCOCC3)cc21 | 1.4
S=C(Nc1ccc(Cl)cc1)N1CCN(C2CCCCC2)CC1 | 0.3
O=C(NCC12CC3CC(CC(C3)C1)C2)c1nn2c(c1Cl)NC(c1ccco1)CC2C(F)(F)F (configuration not stated) | 0.2
Cc1cc(C(=O)O)c2ccccc2n1 | 0.1
Cc1ccc(C(=O)/C=C/c2c[nH]c3ccccc23)cc1 | i
Cc1noc(C)c1CSc1nc2cc(S(=O)(=O)N3CCOCC3)ccc2o1 | i
COc1cccc(CNCc2ccccn2)c1OC | 0.5
CC(C(=O)NCCC1=CCCCC1)N1C(=O)c2ccccc2C1=O (configuration not stated) | i
CC(c1ccccc1)n1cc(C(=O)NCCCn2ccnc2)nn1 (configuration not stated) | i
O=C(NCc1cccnc1)c1cccc(Cl)c1 | 0.1
CC(C)C(C(=O)NCc1ccco1)N(C(=O)CNS(=O)(=O)c1ccc(Cl)cc1)C1CCCC1 (configuration not stated) | i
O=C(Cn1cncn1)NCc1ccccc1Br | i
Cc1ccccc1NC(=O)CN(C)S(=O)(=O)c1cccc2cccnc12 | 3.2
O=C(CS(=O)CC(=O)Nc1cccc2c1CCCC2)Nc1ccc(F)cc1 (configuration not stated) | i
COc1cccc(CNn2cnnc2)c1OCc1ccc(F)cc1 | i
O=C1CC(c2c(F)cccc2Cl)C2=C(COC2=O)N1 (configuration not stated) | 0.4
CCCCc1cc(=O)oc2cc(C)cc(OCc3nn[nH]n3)c12 | 0.3
COc1ccccc1N1CCN(C(=O)C2CC=CCC2C(=O)O)CC1 (configuration not stated) | i
COc1ccc2[nH]c(=O)c(CN(CCO)C(=O)NCc3ccccc3)cc2c1 | 0.6
c1ccc(-c2nnc(-c3ccccc3)c(-c3c[nH]c4ccccc34)n2)cc1 | i
CSc1ncc(Cl)c(C(=O)Nc2nnc(SC)s2)n1 | 16.6
CCn1c2c(c3cc(Br)ccc31)CCC/C2=N\O | i
CCN(c1ccccc1)c1ncnc2c1cnn2-c1ccccc1 | i
O=C1CCC(C(=O)OCc2ccccc2)N1 (configuration not stated) | i
COc1cc(/C=N/NC(=O)c2cccc([N+](=O)[O-])c2)ccc1OCc1ccccc1 | 0.2
O=C(O)CCCC(=O)Nc1ccc(C(=O)NCc2cccnc2)cc1 | 0.6

An excerpt of these results, as tab-separated lines:
smiles	H5N1 CPE
Cc1noc(C)c1CSc1nc2cc(S(=O)(=O)N3CCOCC3)ccc2o1	i
COc1cccc(CNCc2ccccn2)c1OC	0.5
CC(C(=O)NCCC1=CCCCC1)N1C(=O)c2ccccc2C1=O (configuration not stated)	i
CC(c1ccccc1)n1cc(C(=O)NCCCn2ccnc2)nn1 (configuration not stated)	i
O=C(NCc1cccnc1)c1cccc(Cl)c1	0.1
CC(C)C(C(=O)NCc1ccco1)N(C(=O)CNS(=O)(=O)c1ccc(Cl)cc1)C1CCCC1 (configuration not stated)	i
O=C(Cn1cncn1)NCc1ccccc1Br	i
Cc1ccccc1NC(=O)CN(C)S(=O)(=O)c1cccc2cccnc12	3.2
O=C(CS(=O)CC(=O)Nc1cccc2c1CCCC2)Nc1ccc(F)cc1 (configuration not stated)	i
COc1cccc(CNn2cnnc2)c1OCc1ccc(F)cc1	i
O=C1CC(c2c(F)cccc2Cl)C2=C(COC2=O)N1 (configuration not stated)	0.4
CCCCc1cc(=O)oc2cc(C)cc(OCc3nn[nH]n3)c12	0.3
COc1ccccc1N1CCN(C(=O)C2CC=CCC2C(=O)O)CC1 (configuration not stated)	i
COc1ccc2[nH]c(=O)c(CN(CCO)C(=O)NCc3ccccc3)cc2c1	0.6
c1ccc(-c2nnc(-c3ccccc3)c(-c3c[nH]c4ccccc34)n2)cc1	i
CSc1ncc(Cl)c(C(=O)Nc2nnc(SC)s2)n1	16.6
CCn1c2c(c3cc(Br)ccc31)CCC/C2=N\O	i
CCN(c1ccccc1)c1ncnc2c1cnn2-c1ccccc1	i
O=C1CCC(C(=O)OCc2ccccc2)N1 (configuration not stated)	i
COc1cc(/C=N/NC(=O)c2cccc([N+](=O)[O-])c2)ccc1OCc1ccccc1	0.2
O=C(O)CCCC(=O)Nc1ccc(C(=O)NCc2cccnc2)cc1	0.6
